Compound activity deposited in PubChem BioAssay by Broad Institute.
HIV Env fusion: inhibitors of HIV-1 Env-driven cell-cell fusion, primary screen, HeLa-JRFL effector, CEM21 target cells, luciferase; inhibition, % at 12.3 µM; 360,000 tested, 1.1% active; AID 651610, 2012;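 active = mean replicate inhibition score of at least 50 and every replicate individually at or above 50; inconclusive = only one of the two criteria met; inactive = mean below 50 and not all replicates reaching 50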;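 also: 0% = plate neutral controls and 100% = maraviroc near 300 nM; one replicate is shown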
Yeast UUG start: modulators of yeast start codon fidelity, primary screen, whole organism, S. cerevisiae, single point, plate reader. AID 602363, 2012. S. cerevisiae UUG-firefly luciferase reporter, luminescence/redox ratio. 350,000 tested, 0.13% active. activity score, % at 18.7 µM;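 active = replicate mean at a twofold rise or more, about +100% in these data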;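 also: firefly luciferase made from a UUG start codon reports start codon fidelity; reporter light over untreated wells divided by growth signal over untreated wells; some hits fall short of that in this replicate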
* marks the source's active call; other numbers are inactive results; ? = inconclusive; & = joins results of further samples; [ ] = dose if it differs, or a comment.

SMILES	HIV Env fusion	Yeast UUG start
C[C@H]1CN([C@@H](C)CO)C(=O)c2cc(C#Cc3ccccc3F)cnc2O[C@H]1CN(C)C(=O)Cc1ccncc1	-6[16.7 µM]	-15
COc1ccc(S(=O)(=O)Nc2ccc3c(c2)CC(=O)N([C@@H](C)CO)C[C@@H](C)[C@H](CN(C)CC2CC2)O3)cc1	-2&-5[16.7 µM]	21&46
CC(C)NC(=O)Nc1ccc2c(c1)C(=O)N([C@@H](C)CO)C[C@H](C)[C@H](CN(C)C(=O)Nc1ccc(F)cc1)O2	70*[16.7 µM]	-6
C[C@H](CO)N1C[C@H](C)[C@@H](CN(C)S(=O)(=O)c2ccc(Cl)cc2)OCCCC[C@H](C)Oc2ccc(NS(=O)(=O)c3cn(C)cn3)cc2C1=O	1[16.7 µM]	8
CC(C)NC(=O)N(C)C[C@H]1Oc2c(NC(=O)Nc3ccc4c(c3)OCO4)cccc2C(=O)N([C@@H](C)CO)C[C@@H]1C	0[16.7 µM]	-2
C[C@@H]1CN([C@H](C)CO)C(=O)c2cccc(NC(=O)C3CCOCC3)c2O[C@@H]1CN(C)Cc1ccccc1	10[16.7 µM]	-13
C[C@H]1CN([C@@H](C)CO)S(=O)(=O)c2ccc(-c3cccc(F)c3)cc2O[C@H]1CN(C)C(=O)Nc1cc(F)ccc1F	-3[16.7 µM]	10
C[C@@H]1CN([C@@H](C)CO)C(=O)c2cc(NS(=O)(=O)c3ccccc3)ccc2O[C@@H](C)CCCCO[C@@H]1CN(C)C(=O)c1ccncc1	-6[16.7 µM]	4
CNC[C@@H]1OCCCC[C@@H](C)Oc2ccc(NC(=O)C3CCCCC3)cc2C(=O)N([C@H](C)CO)C[C@H]1C	3[16.7 µM]	3
COc1ccccc1-c1ccc2c(c1)O[C@H](CN(C)S(=O)(=O)c1ccc(C)cc1)[C@H](C)CN([C@H](C)CO)S2(=O)=O	?	24
COCC(=O)Nc1ccc2c(c1)C(=O)N(C)[C@@H]1CC[C@@H](CC(=O)NC3CCCC3)O[C@H]1CO2	11[16.7 µM]	-24
C[C@H](CO)N1C[C@H](C)[C@H](CN(C)C(=O)c2ccccc2)OCCCC[C@H](C)Oc2ccc(NC(=O)C3CCCCC3)cc2C1=O	-11[16.7 µM]	12
C[C@@H]1CCCCO[C@@H](CN(C)C(=O)C2CCCCC2)[C@@H](C)CN([C@@H](C)CO)C(=O)c2cc(N(C)C)ccc2O1	-4[16.7 µM]	8
COc1ccccc1S(=O)(=O)N[C@@H]1C=C[C@@H](CC(=O)NCc2cccc(F)c2)O[C@@H]1CO	-8[16.7 µM]	1
O=C(Cc1ccncc1)NCC[C@@H]1CC[C@H](NC(=O)Nc2ccc(F)cc2)[C@@H](CO)O1	-12[16.7 µM]	-4
C[C@@H]1CN([C@H](C)CO)S(=O)(=O)c2ccc(-c3cncnc3)cc2O[C@H]1CN(C)C(=O)Cc1cccnc1	-10[16.7 µM]	-12
COc1ccc(S(=O)(=O)Nc2ccc3c(c2)OC[C@@H](C)N(C)C[C@@H](C)[C@H](OC)CN(C)C3=O)cc1	9[16.7 µM]	-18
Cc1ccc(-c2cnc3c(c2)C(=O)N([C@H](C)CO)C[C@@H](C)[C@H](CN(C)C(=O)c2cccnc2)O3)cc1	-8[16.7 µM]	-13
C[C@@H]1CN([C@H](C)CO)C(=O)c2cc(-c3cncnc3)cnc2O[C@H]1CN(C)Cc1ccccc1	6[16.7 µM]	-17
COc1ccc(NC(=O)N(C)C[C@H]2OCCCC[C@H](C)Oc3ccc(NC(=O)Nc4ccccc4)cc3C(=O)N([C@@H](C)CO)C[C@H]2C)cc1	-9[16.7 µM]	-6
Cc1noc(C)c1NC(=O)N(C)C[C@@H]1Oc2ccc(NC(=O)Cc3ccccc3)cc2CC(=O)N([C@@H](C)CO)C[C@H]1C	-2[16.7 µM]	-6
COc1cccc(NC(=O)N[C@H]2CC[C@@H](CC(=O)N3CCN(C)CC3)O[C@@H]2CO)c1	8[16.7 µM]	-2
C[C@H](CO)N1C[C@H](C)[C@@H](CN(C)S(C)(=O)=O)Oc2ccc(NS(=O)(=O)c3ccccc3)cc2CC1=O	11[16.7 µM]	-4
C[C@@H]1CN([C@H](C)CO)C(=O)c2cc(/C=C/c3ccccc3)cnc2O[C@@H]1CN(C)C(=O)CN(C)C	-4[16.7 µM]	14
C[C@H]1CN([C@@H](C)CO)C(=O)c2cc(NC(=O)Nc3cccc4ccccc34)ccc2O[C@@H]1CN(C)Cc1ccc(Cl)c(Cl)c1	11[16.7 µM]	-6
CC(=O)N(C)C[C@H]1Oc2cc(-c3ccccc3F)ccc2S(=O)(=O)N([C@H](C)CO)C[C@H]1C	4[16.7 µM]	2
C[C@@H]1CCCCO[C@H](CN(C)C(=O)c2ccccc2)[C@H](C)CN([C@@H](C)CO)C(=O)c2cc(NC(=O)c3ccncc3)ccc2O1	-4[16.7 µM]	1
COc1ccc(NC(=O)Nc2cccc3c2O[C@H](CN(C)Cc2ccc(Cl)c(Cl)c2)[C@@H](C)CN([C@@H](C)CO)C3=O)cc1	2[16.7 µM]	4
CC(C)c1cn(CC[C@H]2CC[C@@H](NC(=O)C3CCCCC3)[C@@H](CO)O2)nn1	6[16.7 µM]	-9
O=C(C[C@H]1C[C@H]2c3cc(NC(=O)C4CCC4)ccc3O[C@H]2[C@H](CO)O1)NC1CCCCC1	-3[16.7 µM]	0
COc1ccc(S(=O)(=O)Nc2ccc3c(c2)C(=O)N([C@@H](C)CO)C[C@@H](C)[C@H](CN(C)S(=O)(=O)c2ccccc2)O3)cc1	-6[16.7 µM]	5
COc1ccc(NC(=O)Nc2ccc3c(c2)C(=O)N([C@H](C)CO)C[C@@H](C)[C@H](CN(C)Cc2ccc4c(c2)OCO4)O3)cc1	3[16.7 µM]	-5
C[C@@H]1CN([C@@H](C)CO)C(=O)c2cc(-c3cccc(C#N)c3)cnc2O[C@@H]1CN(C)Cc1ccccc1	-11[16.7 µM]	-1
Cc1noc(C)c1NC(=O)N[C@H]1CC[C@@H](CC(=O)N2CCCCC2)O[C@H]1CO	-11[16.7 µM]	-16
COc1ccc(S(=O)(=O)N(C)C[C@H]2Oc3ccc(NC(=O)Cn4cnnn4)cc3C(=O)N([C@H](C)CO)C[C@H]2C)cc1	-31[16.7 µM]	4
CCCNC(=O)N(C)C[C@@H]1Oc2cc(C#CCC(C)C)ccc2S(=O)(=O)N([C@@H](C)CO)C[C@H]1C	-1[16.7 µM]	9
O=C(C[C@@H]1CC[C@H](NC(=O)Nc2ccc3c(c2)OCO3)[C@@H](CO)O1)NCc1ccc(Cl)cc1	0[16.7 µM]	-2
CC(C)NC(=O)N(C)C[C@H]1OCCCC[C@H](C)Oc2ccc(NS(=O)(=O)c3ccc(F)cc3)cc2C(=O)N([C@@H](C)CO)C[C@H]1C	-14[16.7 µM]	-2
COC(=O)C[C@@H]1CC[C@H](NS(=O)(=O)c2ccc(OC)cc2)[C@@H](CO)O1	1[16.7 µM]	-8
CO[C@@H]1CN(C)C(=O)c2cc(NC(=O)c3ccc4c(c3)OCO4)ccc2OC[C@@H](C)NC[C@@H]1C	-1[16.7 µM]	-10
C[C@H](CO)N1C[C@H](C)[C@@H](CN(C)S(=O)(=O)c2cn(C)cn2)OCCCC[C@H](C)Oc2ccc(NC(=O)Nc3cccc4ccccc34)cc2C1=O	-11[16.7 µM]	7
Cc1noc(C)c1NC(=O)N(C)C[C@@H]1Oc2ccc(NC(=O)Nc3ccc(C(F)(F)F)cc3)cc2C(=O)N([C@H](C)CO)C[C@@H]1C	-6[16.7 µM]	-3
COc1ccc(CN(C)C[C@H]2Oc3ccc(NC(=O)Cc4cn(C)c5ccccc45)cc3CC(=O)N([C@@H](C)CO)C[C@@H]2C)cc1	-4[16.7 µM]	-5
Cc1ccc(S(=O)(=O)N[C@@H]2CC[C@@H](CCn3cc(-c4cccc(F)c4)nn3)O[C@@H]2CO)cc1	14[16.7 µM]	-6
CC(=O)N(C)C[C@H]1Oc2cc(-c3ccncc3)ccc2S(=O)(=O)N([C@@H](C)CO)C[C@H]1C	15[16.7 µM]	-3
C[C@H](CO)N1C[C@H](C)[C@H](CN(C)Cc2ccccc2)Oc2ncc(-c3cccc(C#N)c3)cc2C1=O	0[16.7 µM]	-3
C[C@@H]1CN([C@@H](C)CO)C(=O)c2cc(-c3ccccc3F)cnc2O[C@H]1CN(C)C(=O)CN(C)C	-20[16.7 µM]	-20
Cc1ccc(S(=O)(=O)Nc2ccc3c(c2)C(=O)N([C@H](C)CO)C[C@@H](C)[C@@H](CN(C)C(=O)NC(C)C)O3)cc1	6[16.7 µM]	5
CC(C)CC#Cc1ccc2c(c1)O[C@@H](CN(C)Cc1ccncc1)[C@H](C)CN([C@@H](C)CO)S2(=O)=O	49[16.7 µM]	-13
O=C(NCC[C@H]1CC[C@H](NS(=O)(=O)c2cccc(F)c2)[C@@H](CO)O1)C1CCCC1	1[16.7 µM]	0
COc1ccc(NC(=O)Nc2ccc3c(c2)C(=O)N([C@H](C)CO)C[C@@H](C)[C@@H](CN(C)Cc2ccncc2)OCCCC[C@H](C)O3)cc1	-2[16.7 µM]	6
C[C@@H]1CN([C@H](C)CO)C(=O)c2cc(NS(=O)(=O)c3cn(C)cn3)ccc2O[C@H]1CN(C)S(=O)(=O)c1ccccc1	11[16.7 µM]	-5
C[C@@H]1CN([C@@H](C)CO)S(=O)(=O)c2ccc(C#C[C@@H](C)O)cc2O[C@H]1CN(C)CC1CC1	-51[16.7 µM]	-8
C[C@@H]1CN([C@@H](C)CO)C(=O)c2cc(C#CC3CC3)cnc2O[C@H]1CN(C)C(=O)Nc1ccccc1	-9[16.7 µM]	13
Cc1noc(C)c1S(=O)(=O)N(C)C[C@H]1OCCCC[C@@H](C)Oc2ccc(NC(=O)NC(C)C)cc2C(=O)N([C@@H](C)CO)C[C@@H]1C	-35[16.7 µM]	6
C[C@@H]1CN([C@H](C)CO)C(=O)Cc2cc(NC(=O)c3ccncc3)ccc2O[C@H]1CN(C)S(C)(=O)=O	-8[16.7 µM]	-24
C[C@H]1CCCCO[C@@H](CN(C)Cc2ccccc2)[C@@H](C)CN([C@@H](C)CO)C(=O)c2cc(NS(=O)(=O)c3ccc(F)cc3)ccc2O1	6[16.7 µM]	13
C[C@@H]1CN([C@H](C)CO)C(=O)c2cc(NC(=O)C3CCCCC3)ccc2O[C@H]1CN(C)C(=O)Nc1cccc2ccccc12	-6[16.7 µM]	-4
C[C@@H]1CN([C@@H](C)CO)C(=O)c2cc(C#Cc3cccnc3)cnc2O[C@H]1CN(C)S(C)(=O)=O	-3[16.7 µM]	7
C/C=C/c1ccc2c(c1)O[C@H](CN(C)C(=O)C1CCOCC1)[C@H](C)CN([C@@H](C)CO)S2(=O)=O	23[16.7 µM]	6
The list continues:
SMILES	HIV Env fusion	Yeast UUG start
CCCNC(=O)N(C)C[C@H]1Oc2cc(C#CC3CC3)ccc2S(=O)(=O)N([C@H](C)CO)C[C@@H]1C	-10[16.7 µM]	-4
COc1ccc(CN(C)C[C@@H]2Oc3ccc(NC(=O)C4CC4)cc3CC(=O)N([C@H](C)CO)C[C@H]2C)cc1	-31[16.7 µM]	-1
O=C(N[C@@H]1CC[C@H](CCn2cc(-c3ccccc3)nn2)O[C@@H]1CO)c1ccccc1F	-9[16.7 µM]	8
C[C@@H]1CN([C@H](C)CO)C(=O)c2cc(NC(=O)Nc3ccc(F)cc3)ccc2O[C@@H]1CN(C)C(=O)Nc1ccc(C(F)(F)F)cc1	-16[16.7 µM]	-16
CO[C@@H]1CN(C)C(=O)c2ccc(NC(C)=O)cc2OC[C@H](C)N(CC2CC2)C[C@@H]1C	26[16.7 µM]	-5
CCCN(C)C[C@H]1Oc2cc(C#CCOC)ccc2S(=O)(=O)N([C@H](C)CO)C[C@H]1C	-5[16.7 µM]	16
COCC(=O)N(C)C[C@@H]1Oc2cc(-c3ccc(C)cc3)ccc2S(=O)(=O)N([C@H](C)CO)C[C@H]1C	7[16.7 µM]	-3

Ordered by molecular weight (high to low): 10 of the compounds above.
SMILES	HIV Env fusion	Yeast UUG start
C[C@H]1CCCCO[C@@H](CN(C)Cc2ccccc2)[C@@H](C)CN([C@@H](C)CO)C(=O)c2cc(NS(=O)(=O)c3ccc(F)cc3)ccc2O1	6[16.7 µM]	13
C[C@@H]1CN([C@H](C)CO)C(=O)c2cc(NC(=O)C3CCCCC3)ccc2O[C@H]1CN(C)C(=O)Nc1cccc2ccccc12	-6[16.7 µM]	-4
COc1ccc(CN(C)C[C@@H]2Oc3ccc(NC(=O)C4CC4)cc3CC(=O)N([C@H](C)CO)C[C@H]2C)cc1	-31[16.7 µM]	-1
C[C@@H]1CN([C@H](C)CO)C(=O)Cc2cc(NC(=O)c3ccncc3)ccc2O[C@H]1CN(C)S(C)(=O)=O	-8[16.7 µM]	-24
COCC(=O)N(C)C[C@@H]1Oc2cc(-c3ccc(C)cc3)ccc2S(=O)(=O)N([C@H](C)CO)C[C@H]1C	7[16.7 µM]	-3
C/C=C/c1ccc2c(c1)O[C@H](CN(C)C(=O)C1CCOCC1)[C@H](C)CN([C@@H](C)CO)S2(=O)=O	23[16.7 µM]	6
CCCNC(=O)N(C)C[C@H]1Oc2cc(C#CC3CC3)ccc2S(=O)(=O)N([C@H](C)CO)C[C@@H]1C	-10[16.7 µM]	-4
C[C@@H]1CN([C@@H](C)CO)C(=O)c2cc(C#Cc3cccnc3)cnc2O[C@H]1CN(C)S(C)(=O)=O	-3[16.7 µM]	7
O=C(N[C@@H]1CC[C@H](CCn2cc(-c3ccccc3)nn2)O[C@@H]1CO)c1ccccc1F	-9[16.7 µM]	8
CO[C@@H]1CN(C)C(=O)c2ccc(NC(C)=O)cc2OC[C@H](C)N(CC2CC2)C[C@@H]1C	26[16.7 µM]	-5

This is a subset, so the mix of outcomes need not match the whole.
